Source: PubChem
HIV Env fusion: inhibitors of HIV Env-mediated cell fusion; inhibition, % at 12.3 µM; HeLa-JRFL Env/CEM21 cell fusion, luciferase; AID 651610; 1.1% of 360,000 active;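 active = mean replicate inhibition score of at least 50 and every replicate individually at or above 50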;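 also: 0% = plate neutral controls and 100% = maraviroc near 300 nM; one replicate is shown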
UUG fidelity: modulators of start codon recognition fidelity in yeast | activity score, % at 18.7 µM | S. cerevisiae UUG-firefly luciferase reporter, luminescence/redox ratio | 0.13% of 350,000 active;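 active = replicate mean at a twofold rise or more, about +100% in these data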;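 also: firefly luciferase made from a UUG start codon reports start codon fidelity; reporter light over untreated wells divided by growth signal over untreated wells; some hits fall short of that in this replicate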
* marks the source's active call; other numbers are inactive results; [ ] = another dose, or the depositor's remark.

HIV Env fusion,UUG fidelity,Compound
-10.4[16.7 µM],19.0,C[C@@H]1CN([C@H](C)CO)C(=O)c2cc(-c3ccccc3)cnc2O[C@@H]1CN(C)Cc1ccccn1
-8.7[16.7 µM],-32.0,Cc1ccc(S(=O)(=O)Nc2ccc3c(c2)C(=O)N([C@H](C)CO)C[C@H](C)[C@@H](CN(C)C(=O)Nc2cccc4ccccc24)OCCCC[C@@H](C)O3)cc1
12.4[16.7 µM],-9.7,O=C(Cc1ccccn1)N[C@@H]1CC[C@@H](CCn2cc(-c3cccnc3)nn2)O[C@H]1CO
-6.4[16.7 µM],-15.5,CCCNC(=O)N(C)C[C@@H]1Oc2ncc(C#Cc3ccncc3)cc2C(=O)N([C@H](C)CO)C[C@@H]1C
15.8[16.7 µM],-3.9,COc1ccc(CN(C)C[C@H]2OCCCC[C@@H](C)Oc3ccc(NS(=O)(=O)c4ccc(Cl)cc4)cc3C(=O)N([C@H](C)CO)C[C@@H]2C)cc1
-52.4[16.7 µM],23.6,Cc1ccc(S(=O)(=O)Nc2ccc3c(c2)C(=O)N([C@@H](C)CO)C[C@H](C)[C@H](CN(C)C(=O)Nc2cccc4ccccc24)OCCCC[C@@H](C)O3)cc1
-35.4[16.7 µM],29.6,C[C@H](CO)N1C[C@H](C)[C@@H](CN(C)Cc2ccc3c(c2)OCO3)OCCCC[C@H](C)Oc2ccc(NC(=O)Cc3ccccc3)cc2C1=O
-65.1[16.7 µM],1.2,C[C@H]1CCCCO[C@H](CN(C)S(=O)(=O)c2ccc(Cl)cc2)[C@@H](C)CN([C@@H](C)CO)C(=O)c2cc(NC(=O)c3ccncc3)ccc2O1
-16.6[16.7 µM],3.8,C[C@H](CO)N1C[C@H](C)[C@H](CN(C)Cc2ccccc2F)Oc2cc(C#CCN(C)C)ccc2S1(=O)=O
-25.6[16.7 µM],-11.9,C[C@H](CO)N1C[C@H](C)[C@H](CN(C)S(=O)(=O)c2ccc(F)cc2)OCCCC[C@H](C)Oc2ccc(NS(=O)(=O)c3cccs3)cc2C1=O
-11.0[16.7 µM],-1.5,C[C@H](CO)N1C[C@H](C)[C@@H](CN(C)Cc2cncnc2)Oc2ncc(-c3cccc(C#N)c3)cc2C1=O
3.7[16.7 µM],-25.6,C[C@H](CO)N1C[C@H](C)[C@H](CN(C)C(=O)Nc2ccc(C(F)(F)F)cc2)OCCCC[C@H](C)Oc2ccc(NC(=O)Nc3ccccc3)cc2C1=O
-58.0[16.7 µM],-7.0,Cc1ccc(S(=O)(=O)Nc2ccc3c(c2)C(=O)N([C@@H](C)CO)C[C@@H](C)[C@@H](CN(C)C(=O)Nc2ccc4c(c2)OCO4)OCCCC[C@@H](C)O3)cc1
-3.2[16.7 µM],0.2,COc1ccc(NC(=O)N(C)C[C@H]2OCCCC[C@H](C)Oc3ccc(NC(=O)Nc4c(C)noc4C)cc3C(=O)N([C@H](C)CO)C[C@@H]2C)cc1
4.3[16.7 µM],31.7,C[C@H]1CCCCO[C@@H](CN(C)C(=O)Nc2ccccc2)[C@@H](C)CN([C@@H](C)CO)C(=O)c2cc(NS(C)(=O)=O)ccc2O1
1.6[16.7 µM],4.3,C[C@@H]1CN([C@H](C)CO)C(=O)c2cc(C#CC3CC3)cnc2O[C@@H]1CN(C)Cc1cccc(C(=O)O)c1
-60.1[16.7 µM],-1.4,C[C@@H]1CN([C@H](C)CO)S(=O)(=O)c2ccc(C#CC3(O)CCCC3)cc2O[C@@H]1CN(C)C(=O)Nc1ccccc1
26.4[16.7 µM],-1.3,C[C@H](CO)N1C[C@H](C)[C@@H](CN(C)S(=O)(=O)c2ccc(F)cc2)Oc2ncc(/C=C/c3ccccc3)cc2C1=O
10.8[16.7 µM],8.3,C[C@@H]1CN([C@@H](C)CO)S(=O)(=O)c2ccc(C#Cc3ccc(F)cc3)cc2O[C@@H]1CN(C)S(C)(=O)=O
-12.1[16.7 µM],-15.0,C[C@@H]1CN([C@H](C)CO)C(=O)c2cccc(NC(=O)C3CC3)c2O[C@@H]1CN(C)Cc1ccc(C(F)(F)F)cc1
-6.5[16.7 µM],2.0,Cc1ccccc1S(=O)(=O)NCC[C@H]1CC[C@@H](NC(=O)C2CCC2)[C@H](CO)O1
-9.4[16.7 µM],20.9,C[C@@H]1CCCCO[C@@H](CN(C)C(=O)Nc2ccc(C(F)(F)F)cc2)[C@@H](C)CN([C@H](C)CO)C(=O)c2cc(NC(=O)C3CCCCC3)ccc2O1
30.6[16.7 µM],-7.0,C[C@@H]1CCCCO[C@@H](CN(C)S(=O)(=O)c2ccc(Cl)cc2)[C@H](C)CN([C@H](C)CO)C(=O)c2cc(NC(=O)C3CCCCC3)ccc2O1
1.9[16.7 µM],-2.5,COc1ccccc1-c1ccc2c(c1)O[C@@H](CN(C)C(C)=O)[C@H](C)CN([C@H](C)CO)S2(=O)=O
-11.9[16.7 µM],15.2,CN1C(=O)c2cc(NC(=O)Cc3ccccc3)ccc2OC[C@H]2O[C@H](CC(=O)NCc3ccc(Cl)cc3)CC[C@H]21
-8.3[16.7 µM],0.0,C[C@H](NC(=O)C[C@@H]1C=C[C@H](NC(=O)C2CC2)[C@@H](CO)O1)c1ccccc1
16.2[16.7 µM],-5.8,C[C@H](CO)N1C[C@H](C)[C@H](CN(C)S(=O)(=O)c2cccs2)OCCCC[C@H](C)Oc2ccc(NC(=O)Nc3cccc4ccccc34)cc2C1=O
-17.2[16.7 µM],1.9,C[C@@H]1CN([C@H](C)CO)C(=O)c2cccc(NC(=O)C3CCCCC3)c2O[C@H]1CN(C)S(=O)(=O)c1ccc(Cl)cc1
-25.9[16.7 µM],-4.9,C[C@@H]1CN([C@H](C)CO)C(=O)c2cc(C#Cc3ccncc3)cnc2O[C@H]1CN(C)CC1CCCC1
-6.7[16.7 µM],-4.8,C[C@H]1CCCCO[C@H](CN(C)Cc2ccc(C(=O)O)cc2)[C@@H](C)CN([C@@H](C)CO)C(=O)c2cc(NC(=O)c3ccncc3)ccc2O1
4.2[16.7 µM],-0.6,Cc1noc(C)c1NC(=O)N[C@@H]1CC[C@H](CCNC(=O)C2CCCC2)O[C@@H]1CO
-69.7[16.7 µM],-3.8,CC(C)NC(=O)N(C)C[C@@H]1Oc2ncc(-c3ccc(C(=O)N(C)C)cc3)cc2C(=O)N([C@H](C)CO)C[C@H]1C
-17.0[16.7 µM],-10.9,C[C@@H]1CN([C@@H](C)CO)S(=O)(=O)c2ccc(C#CC3(O)CCCC3)cc2O[C@@H]1CN(C)C(=O)c1ccncc1
-16.2[16.7 µM],2.2,CC(C)CC#Cc1cnc2c(c1)C(=O)N([C@@H](C)CO)C[C@H](C)[C@@H](CN(C)C(=O)c1ccc(F)cc1)O2
-13.2[16.7 µM],10.7,C[C@@H]1CN([C@H](C)CO)C(=O)c2cccc(NC(=O)Nc3ccccc3)c2O[C@@H]1CN(C)Cc1ccc(-c2ccccc2)cc1
6.8[16.7 µM],-23.2,CN(C)CC(=O)N[C@@H]1CC[C@H](CCn2cc(CN(C)C)nn2)O[C@@H]1CO
-3.9[16.7 µM],1.9,CCCN(C)C[C@H]1Oc2cc(-c3ccccc3F)ccc2S(=O)(=O)N([C@@H](C)CO)C[C@H]1C
3.7[16.7 µM],2.5,C[C@@H]1CN([C@H](C)CO)C(=O)c2cc(NC(=O)Nc3ccc(F)cc3)ccc2O[C@@H](C)CCCCO[C@@H]1CN(C)Cc1ccc(C(=O)O)cc1
-5.0[16.7 µM],-3.4,CC(C)NC(=O)N(C)C[C@@H]1OCCCC[C@@H](C)Oc2ccc(NS(=O)(=O)c3ccc(F)cc3)cc2C(=O)N([C@H](C)CO)C[C@@H]1C
-7.4[16.7 µM],-5.3,O=C(N[C@@H]1C=C[C@H](CC(=O)N2CCc3ccccc3C2)O[C@H]1CO)C1CCC1
5.6[16.7 µM],-13.9,O=C(C[C@H]1CC[C@@H](NC(=O)Nc2ccc(F)cc2)[C@@H](CO)O1)NCc1ccccn1
6.2[16.7 µM],6.3,CCCNC(=O)C[C@H]1CC[C@H]2[C@H](COc3ccc(NC(=O)Cc4ccccc4)cc3C(=O)N2C)O1
4.6[16.7 µM],5.0,N#C[C@@H]1[C@H](c2ccc(C3=CCCC3)cc2)[C@H](CO)N1C(=O)C1CCCC1
-9.3[16.7 µM],-8.4,CCNC(=O)C[C@H]1C=C[C@@H](NS(=O)(=O)c2ccc(F)cc2)[C@H](CO)O1
-13.0[16.7 µM],-5.5,CCC(=O)N1C[C@H](O)COC[C@@H]2O[C@@H](CC(=O)NCC3CCCCC3)CC[C@H]21
18.7[16.7 µM],-13.8,Cc1nn(C)cc1NC(=O)C[C@H]1CC[C@H]2[C@H](COc3ccc(NC(=O)C(C)C)cc3C(=O)N2C)O1
-3.7[16.7 µM],-16.2,Cc1noc(C)c1S(=O)(=O)Nc1ccc2c(c1)CC(=O)N([C@@H](C)CO)C[C@H](C)[C@H](CN(C)Cc1ccc3c(c1)OCO3)O2
11.1[16.7 µM],9.0,C[C@H](CO)N1C[C@H](C)[C@@H](CN(C)CC2CCCCC2)Oc2ccc(NS(=O)(=O)c3ccccc3)cc2CC1=O

Three entries from above, ordered by formula weight, smallest number first:
HIV Env fusion,UUG fidelity,Compound
-10.4[16.7 µM],19.0,C[C@@H]1CN([C@H](C)CO)C(=O)c2cc(-c3ccccc3)cnc2O[C@@H]1CN(C)Cc1ccccn1
18.7[16.7 µM],-13.8,Cc1nn(C)cc1NC(=O)C[C@H]1CC[C@H]2[C@H](COc3ccc(NC(=O)C(C)C)cc3C(=O)N2C)O1
-17.0[16.7 µM],-10.9,C[C@@H]1CN([C@@H](C)CO)S(=O)(=O)c2ccc(C#CC3(O)CCCC3)cc2O[C@@H]1CN(C)C(=O)c1ccncc1

The results go on:
HIV Env fusion,UUG fidelity,Compound
-152.5[16.7 µM],-16.1,C[C@H](CO)N1C[C@H](C)[C@H](CN(C)Cc2ccc(C(=O)Nc3ccccc3N)cc2)Oc2ccc(NC(=O)c3ccncc3)cc2CC1=O
28.6[16.7 µM],11.5,COc1ccc(C#Cc2cnc3c(c2)C(=O)N([C@@H](C)CO)C[C@@H](C)[C@H](CN(C)C(=O)c2ccccc2F)O3)cc1
35.4[16.7 µM],-5.0,C[C@@H]1CN([C@H](C)CO)S(=O)(=O)c2ccc(Br)cc2O[C@H]1CN(C)C(=O)c1cnccn1
-2.2[16.7 µM],0.1,C[C@@H]1CN([C@H](C)CO)C(=O)c2cc(-c3cccc(C#N)c3)cnc2O[C@H]1CN(C)C(=O)C1CCCCC1
-15.5[16.7 µM],5.3,COc1ccc(NC(=O)N(C)C[C@@H]2Oc3c(NS(=O)(=O)c4ccc(C)cc4)cccc3C(=O)N([C@@H](C)CO)C[C@@H]2C)cc1
12.6[16.7 µM],-1.0,C[C@H]1CN([C@@H](C)CO)C(=O)Cc2cc(NS(=O)(=O)c3cccs3)ccc2O[C@@H]1CN(C)Cc1ccncc1
12.9[16.7 µM],4.9,Cc1ccc(S(=O)(=O)N(C)C[C@H]2Oc3ccc(NS(C)(=O)=O)cc3CC(=O)N([C@H](C)CO)C[C@H]2C)cc1
15.9[16.7 µM],15.1,CN1CCN(C(=O)C[C@@H]2CC[C@H](NC(=O)Nc3ccccc3F)[C@H](CO)O2)CC1
19.5[16.7 µM],4.4,C[C@@H]1CN([C@H](C)CO)S(=O)(=O)c2ccc(-c3ccccc3F)cc2O[C@H]1CN(C)C(=O)C1CC1
-17.5[16.7 µM],-1.1,CO[C@H]1CN(C)C(=O)c2cc(NS(=O)(=O)c3ccccc3)ccc2OC[C@@H](C)N(C(=O)NC(C)C)C[C@H]1C
-0.4[16.7 µM],25.7,C[C@@H]1CCCCO[C@@H](CN(C)S(C)(=O)=O)[C@@H](C)CN([C@H](C)CO)C(=O)c2cc(NS(=O)(=O)c3cn(C)cn3)ccc2O1
22.5[16.7 µM],14.7,O=C(Nc1ccc2c(c1)OCO2)N[C@@H]1CC[C@H](CC(=O)N2CCN(c3ccccc3)CC2)O[C@H]1CO
60.4*[16.7 µM],-7.5,C[C@@H]1CN([C@H](C)CO)C(=O)c2cc(C#Cc3ccncc3)cnc2O[C@@H]1CN(C)S(=O)(=O)c1ccccc1F
5.5[16.7 µM],14.5,COc1ccc(S(=O)(=O)Nc2ccc3c(c2)C(=O)N([C@@H](C)CO)C[C@@H](C)[C@@H](CN(C)C(=O)Nc2ccccc2)OCCCC[C@H](C)O3)cc1
5.9[16.7 µM],6.0,CO[C@@H]1CN(C)C(=O)c2ccc(NC(=O)c3ccccc3F)cc2OC[C@H](C)N(CC2CC2)C[C@H]1C
-8.7[16.7 µM],-11.9,CO[C@@H]1CN(C)C(=O)c2cc(NC(=O)C3CCOCC3)ccc2OC[C@@H](C)N(C)C[C@H]1C
5.6[16.7 µM],-17.5,COCC(=O)N1[C@H](C#N)[C@H](c2ccc(-c3cccc(F)c3)cc2)[C@@H]1CO
-25.8[16.7 µM],3.9,C[C@H](CO)N1C[C@H](C)[C@@H](CN(C)C(=O)CCC(F)(F)F)OCCCC[C@H](C)Oc2ccc(NC(=O)c3ccncc3)cc2C1=O
-26.2[16.7 µM],-5.0,CN(C)CCCNC(=O)C[C@H]1CC[C@@H]2[C@H](COc3ccc(NC(=O)NC4CCCC4)cc3C(=O)N2C)O1

Profiles, quoted from the list.
Results for `CN(C)CCCNC(=O)C[C@H]1CC[C@@H]2[C@H](COc3ccc(NC(=O)NC4CCCC4)cc3C(=O)N2C)O1` = HIV Env fusion: -26.2[16.7 µM]; UUG fidelity: -5.0
Results for `C[C@@H]1CN([C@H](C)CO)C(=O)c2cc(C#Cc3ccncc3)cnc2O[C@@H]1CN(C)S(=O)(=O)c1ccccc1F` = HIV Env fusion: 60.4*[16.7 µM]; UUG fidelity: -7.5

An excerpt; rates above refer to the full screens.
